# Compound activity from PubChem BioAssay.
# MT1-MMP act inh: blockers of MT1-MMP proenzyme processing, primary screen, HT1080 RFP-PRO-GFP cells, GFP/RFP fluorescence. Matrix metalloproteinase-14 (Homo sapiens), P50281. GFP/RFP ratio fluorescence, overnight; percent of plate control window, DMSO zero. GFP/RFP ratio change, % at 20 µM. actives 0.061% (n = 360,000);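 active = GFP/RFP ratio change of at least 30% with cell ATP level not reduced by more than half and red fluorescence within 50% of control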; note: strong numbers were not always called active
#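 Assay system: RFP-PRO-GFP reporter HT1080 cells; read-out basis: GFP/RFP fluorescence ratio; benchmarks: DMSO wells and RFP-L50D-GFP cells; doses: 20 µM single dose, 1% DMSO; schedule: overnight cell settling, then overnight compound exposure, 37 °C, 5% CO2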
# HIV Env fusion: inhibitors of HIV-1 Env-driven cell-cell fusion, primary screen, HeLa-JRFL effector, CEM21 target cells, luciferase | actives 1.1% (n = 360,000) | inhibition, % at 12.3 µM;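 active = mean replicate inhibition score of at least 50 and every replicate individually at or above 50; inconclusive = only one of the two criteria met; inactive = mean below 50 and not all replicates reaching 50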;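 note: 0% = plate neutral controls and 100% = maraviroc near 300 nM; one replicate is shown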
# Rce1 inh: yeast Rce1p protease inhibitors, primary screen, biochemical, fluorescence, cell-free homogeneous; actives 0.27% (n = 290,000); calls only; yeast membranes, quenched prenylated peptide cleavage fluorescence; CAAX prenyl protease 2 (Saccharomyces cerevisiae (strain ATCC 204508 / S288c)), Q03530; AID 2563, 2010;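 active = fall in fluorescence gain of 50% or more versus controls, with final raw signal at or below 3038400; inconclusive = same 50% fall but final raw signal above 3038400; inactive = fall in fluorescence gain under 50%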;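 note: plate controls were neutral control wells for no effect and wells lacking membranes for full effect; tested at 10 µM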
# eIF4H FP inh: human eIF4H binding inhibitors, primary screen, translation initiation inhibitor project, biochemical, uHTS, fluorescence polarization; eIF4H fluorescence polarization binding assay; inhibition, % at 35 µM; actives 0.94% (n = 290,000);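 active = 50% or more with normal probe brightness, or confirmed in later tests; inconclusive = above 50% with abnormal brightness, or retests that disagree; inactive = below 50% or failed in later tests; about a fifth of its hits are not listed in these tables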;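 note: calls also rest on retests at 20 µM and on dose response follow-up; 0% = protein and probe with vehicle and 100% = probe without protein; strong numbers were not always called active; many hits fall short of the cut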
# PABP polyA inh: PABP poly(A) RNA binding inhibitors, primary screen, biochemical, fluorescence polarization, uHTS; AID 2014, 2009; inhibition, % at 35 µM; actives 1% (n = 290,000); Polyadenylate-binding protein 1 (Homo sapiens), P11940;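 active = 50% or more with normal probe brightness, or confirmed in later tests; inconclusive = above 50% with abnormal brightness, or retests that disagree; inactive = below 50% or failed in later tests; about a fifth of its hits are not listed in these tables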;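 note: calls also rest on retests at 20 µM and on dose response follow-up; controls were probe without protein and protein plus probe with vehicle; some compounds called inactive have numbers as strong as hits; many hits fall short of the cut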
# Target sequence (P11940 whole entry, looked up): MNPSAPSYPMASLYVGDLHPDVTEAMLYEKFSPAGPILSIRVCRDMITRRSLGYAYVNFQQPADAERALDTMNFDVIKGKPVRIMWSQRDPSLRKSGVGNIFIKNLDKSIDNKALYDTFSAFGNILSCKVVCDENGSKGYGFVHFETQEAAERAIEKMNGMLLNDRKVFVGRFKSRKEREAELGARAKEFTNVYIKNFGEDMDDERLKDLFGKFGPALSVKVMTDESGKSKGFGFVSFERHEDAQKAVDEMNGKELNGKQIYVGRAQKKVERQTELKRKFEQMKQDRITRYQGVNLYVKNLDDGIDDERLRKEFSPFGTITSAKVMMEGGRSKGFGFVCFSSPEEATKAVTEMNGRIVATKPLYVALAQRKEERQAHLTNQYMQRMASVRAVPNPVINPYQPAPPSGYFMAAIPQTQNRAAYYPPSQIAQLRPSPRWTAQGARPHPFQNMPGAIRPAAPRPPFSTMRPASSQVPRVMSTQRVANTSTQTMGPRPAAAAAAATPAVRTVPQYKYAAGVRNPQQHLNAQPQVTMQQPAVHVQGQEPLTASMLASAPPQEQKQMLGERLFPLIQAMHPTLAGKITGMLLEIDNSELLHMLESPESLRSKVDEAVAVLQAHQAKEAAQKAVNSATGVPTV
# Yeast UUG start: modulators of yeast start codon fidelity, primary screen, whole organism, S. cerevisiae, single point, plate reader | S. cerevisiae UUG-firefly luciferase reporter, luminescence/redox ratio | activity score, % at 18.7 µM | actives 0.13% (n = 350,000);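 active = replicate mean at a twofold rise or more, about +100% in these data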;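 note: firefly luciferase made from a UUG start codon reports start codon fidelity; reporter light over untreated wells divided by growth signal over untreated wells; some hits fall short of that in this replicate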
# CSC inhib: cancer stem cell viability inhibitors, primary screen, luminescence; AID 2717, 2010; actives 1.1% (n = 300,000); inhibition, % at 7.5 µM; cancer stem cell-like cells viability;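 active = mean at 75% or more and at least half the replicates too; inconclusive = mean and replicates disagree; tested in HMLE shEcad cells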;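 note: 0% = median of negative and 100% = median of positive control wells; the first replicate is given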
# eIF4H FP inh retest: further read-out of eIF4H FP inh, marked with its call; inhibition, %; compound at 20 µM; confirmation average;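 mean of two retest wells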
# PABP polyA inh retest: recorded beside PABP polyA inh, whose call it bears; inhibition, %; compound at 20 µM; confirmation repeats;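 mean of two retest wells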
# MT1-MMP act inh RFP: also measured in MT1-MMP act inh; calls as there; RFP signal change, %; measured here: RFP expression control read;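 0 = vehicle wells; hits needed this value within 50% of zero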
# * hit, by the source's call; i = inactive; u = inconclusive; x = no result given.
SMILES,MT1-MMP act inh,MT1-MMP act inh RFP,HIV Env fusion,Rce1 inh,eIF4H FP inh,PABP polyA inh,Yeast UUG start,CSC inhib,others
COc1cc(C(=O)O[C@H]2C/C(C)=C/CC[C@@]3(C)O[C@@H]3[C@H](O)[C@@H]2C(C)C)cc(OC)c1OC,-1,-2,-39,i,-2,-1,18,-16,
O=C(CCC(=O)NC1CCCCCCC1)Nc1nnc(C(F)(F)F)s1,3,-3,x,i,-4,-7,-24,1,
Cc1cc(NCc2ccncc2)ccc1Br,1,8,-21,x,7,8,x,1,
Cc1ccc(C(=O)N2c3ccc(F)cc3CCC2C)o1 (configuration not stated),-1,0,-37,i,-8,-4,-2,-2,
COCCn1c(SCC(=O)Nc2cc(C)on2)nc2c(c1=O)SC(C)C2 (configuration not stated),2,-2,u,i,-4,-7,x,-2,
CCC(C(=O)NCc1ccc(F)cc1)N(Cc1ccco1)C(=O)c1snc(C(N)=O)c1N (configuration not stated),3,-2,x,i,-6,1,-3,-2,
CC(C)OC(=O)CSc1nc2cc3c(cc2cc1C#N)OCO3,-2,3,-92,i,9,16,-17,6,
CC(C)C(=O)NC(c1ccc(Cl)cc1Cl)c1ccc2cccnc2c1O (configuration not stated),11,-2,-289,i,15,10,-22,100*,
COc1ccccc1C(=O)N1C(CC(=O)Nc2cc(Cl)ccc2C)C(=O)NC2CCCCC21 (configuration not stated),-2,-4,-81,i,1,6,-10,x,
Cc1nc2ccc(C(=O)NCCCN3CCCC3=O)cn2c1N(C)C(=O)CCc1ccccc1,3,2,6,x,x,x,-19,x,
C=CCn1c(=S)[nH]c2ccccc2c1=O,-1,2,x,x,-2,-1,-3,-12,
O=S(=O)(NCC1CCCO1)c1ccc2ccccc2c1 (configuration not stated),-3,0,x,i,-10,-7,-31,7,
Cc1ccccc1/C=C1\OC(=O)c2ccccc21,1,2,-58,i,0,4,-25,-8,
Cc1ccc(Cl)cc1-c1cc(C(=O)NCc2cccc(Cl)c2)[nH]n1,2,-2,9,x,x,x,-7,x,
O=C(/C=C/c1ccccc1[N+](=O)[O-])NCCCn1ccnc1,1,7,-8,i,-8,6,x,-10,
O=C(CCCN1C(=O)/C(=C\c2ccco2)SC1=S)Nc1ccc2ccccc2c1,14,18,7,i,78*,1.4*,x,86*,eIF4H FP inh retest=95*;PABP polyA inh retest=90*
CCC(C)n1c(NC(=O)c2ccccc2)c(C#N)c2nc3ccccc3nc21 (configuration not stated),-69,-2,x,i,u,u,-46,49,
Cc1ccc(S(=O)(=O)NNC(=O)c2cc(C)cs2)cc1,-3,0,10,x,-9,14,x,-8,
CCC(=O)N1CC2(CC(c3cccc(NC(=O)CC(c4ccccc4)c4ccccc4)c3)=NO2)C[C@H]1C(N)=O (some centres not stated),1,0,-15,i,3,0,2,-3,
CC(NC(=O)CSc1ncccn1)c1ccccc1 (configuration not stated),0,7,x,i,-2,1,x,0,
CC(=O)Nc1ccc(NC(=O)C2CCCN(S(=O)(=O)c3ccc(Cl)cc3)C2)cc1 (configuration not stated),3,4,1,i,-13,-3,-17,-8,
CC(C)(C)OC(=O)N1CCC(Cc2cc(-c3cccnc3)no2)(C(=O)O)CC1,3,3,17,i,x,x,10,7,
CN1C(=O)CC(N2CCN(CC(=O)N3CCCC3)CC2)C1=O (configuration not stated),0,2,x,i,2,1,-17,-9,
CNC(C)C#Cc1ccc2oc3cccc(OC)c3c(=O)c2c1 (configuration not stated),6,2,-205,i,5,-25,-10,-2,
COc1cc(/C=N\NC(=O)c2ccc(-c3ccccc3)cc2)ccc1OCC(N)=O,3,-3,-58,i,10,15,-20,-5,
O=C(NCc1cccnc1)c1cc2nc(-c3ccc4c(c3)OCO4)cc(C(F)(F)F)n2n1,2,2,u,i,-3,-8,x,-22,
O=C(CSc1nnc(CNC(=O)c2cccs2)o1)Nc1ccc(F)cc1F,-4,3,-4,i,7,4,-18,10,
Cc1c(CCC(=O)O)c(=O)oc2cc(OCc3cccc(Cl)c3)ccc12,0,-2,8,u,0,12,-1,1,
C[C@H](NC(=O)c1nc[nH]c1C(=O)NC1CCN(C(=O)OC(C)(C)C)CC1)C(=O)OC(C)(C)C,5,-3,13,i,-9,0,-7,-5,
CCOC(=O)C1CCN(S(=O)(=O)c2ccc3c4c(cccc24)C(=O)N3)CC1,2,0,x,i,0,1,-12,2,
COc1ccccc1NC(=S)N1CCC(C(=O)c2ccc(F)cc2)CC1,5,4,0,i,-7,-3,x,-6,
O=C(NCC1CCCO1)c1cccc(S(=O)(=O)Nc2ccc(SC(F)F)cc2)c1 (configuration not stated),7,-4,13,x,x,x,27,x,
NC(=O)c1ncn([C@@H]2O[C@H](CNC(=O)[C@H](N)CSCc3ccccc3)[C@@H](O)[C@H]2O)n1,3,7,-12,x,x,x,-18,x,
N#CC1=C(N)C2=CCCC[C@H]2[C@H](c2cccc(F)c2)C1(C#N)C#N,-31,-2,13,i,-4,-9,-2,-1,
CN1C(=O)C(CCC(=O)O)NC1=S (configuration not stated),0,4,10,i,7,-8,0,-1,
O=C(Nc1nnc(-c2ccccc2Cl)o1)c1ccc(S(=O)(=O)N2CCCCCC2)cc1,x,x,x,i,26,-6,x,64,
Cc1cc(/C=N/NC(=O)c2ccsc2)c(C)n1-c1cnccn1,2,3,2,x,-4,-7,x,x,
Cc1cc(C)c(/C=N/NC(=O)c2nnn(-c3nonc3N)c2COc2ccc(F)cc2)c(C)c1,6,1,24,i,-2,12,0,1,
O=C(N1CCC(n2nc(-c3ccccc3)oc2=O)CC1)C1(c2ccc(Cl)cc2)CC1,-3,-5,x,i,-4,3,1,5,
COc1ccc(CCN(C(=O)C(F)(F)F)C(C(=O)NC2CCCCC2)c2ccc(C)s2)cc1OC (configuration not stated),-11,-10,51,i,-4,0,-14,x,
CCC(C(=O)Nc1cccc(C(=O)O)c1C)c1ccccc1 (configuration not stated),1,-3,6,i,3,-12,x,-14,
Cn1c(SCc2ccc(Cl)cc2Cl)nc(C(F)(F)F)cc1=O,0,0,-14,i,3,-1,-9,-8,
CC1=NN(C(=O)COc2ccccc2)C(O)(c2ccccc2)C1 (configuration not stated),2,1,x,i,-10,-5,4,-15,
COc1ccc(CCNC(=O)c2cc(-c3ccc4c(c3)OCO4)on2)cc1OC,9,2,x,i,-6,2,-15,7,
O=C(c1ccc2c(c1)OCCO2)N1CCN(c2ccccn2)CC1,2,3,12,i,3,-5,-11,-2,
COC(=O)C(C)Sc1nc2c(cnn2-c2ccc(C)cc2)c(=O)[nH]1 (configuration not stated),2,-1,x,i,-11,-5,-9,x,
O=C(CSc1nc2ccccc2c(=O)[nH]1)N1CCN(c2ccccc2)CC1,-1,-2,x,i,7,17,-10,-1,
CCOC(=O)C1CCN(Cc2ccc(O)c3ncccc23)CC1,-8,-7,-27,x,14,-6,-23,41,
CNc1cncc(-c2ccc(OC)cc2)n1,-2,-2,-9,x,x,x,-27,x,
CCCCNS(=O)(=O)c1cccc(NC(=O)[C@@H]2O[C@H](CO)[C@@H](O)[C@H]2O)c1,0,0,-1,x,x,x,-10,x,
NC1(C#Cc2ccc3c(=O)c4ccccc4sc3c2)CCCCC1,-4,3,-69,x,x,x,-21,27,
Cc1ccc(C(=O)NC(=S)Nc2ccc(CN3CCOCC3)cc2)cc1,5,-2,-41,x,-5,-10,0,-9,
Cc1c(-n2c(SCC(=O)NC(C)C)nc3ccccc3c2=O)c(=O)n(-c2ccccc2)n1C,2,3,6,i,6,1,x,-11,
Cc1cc(-c2n[nH]c(=S)n2-c2ccc(C)c(C)c2)no1,10,9,-4,i,1,-2,1,-13,
CC(=O)N1CCN(c2ccc(NC(=O)c3ccc(Cl)c(Cl)c3)cc2)CC1,2,-10,6,i,-6,1,-10,4,
CCCc1nc2c(C)cc(C)cc2c(N)c1CC,5,-3,-4,i,2,2,5,-16,
Cn1c(=O)c2c(nc3n2CC(O)CN3c2ccc(O)cc2)n(C)c1=O (configuration not stated),-1,3,9,i,-5,-3,-8,14,
C=C(C)C1CC=C(C)/C(=N/Nc2ccccc2[N+](=O)[O-])C1 (configuration not stated),1,3,6,i,9,7,x,17,
COc1ccc(NC(=O)N2CCN(C(=O)c3ccco3)CC2)c(OC)c1,1,3,7,i,-10,-13,-13,2,
COCCn1c(SCC(=O)Nc2ccc(NC(C)=O)cc2)nc2ccccc2c1=O,-1,2,12,i,8,1,-14,-13,

# The list goes on:
SMILES,MT1-MMP act inh,MT1-MMP act inh RFP,HIV Env fusion,Rce1 inh,eIF4H FP inh,PABP polyA inh,Yeast UUG start,CSC inhib,others
Cc1cc(NS(=O)(=O)c2ccc(NC(=O)/C=C/c3cccc(Cl)c3)cc2)no1,7,3,-19,i,-7,-12,-5,-5,
O=C(O)c1ccccc1C(=O)Nc1ccccn1,2,1,-17,i,-4,3,-19,-12,
O=C(O)c1cccc(CSc2nc(-c3ccc(Cl)cc3)cc(C(F)(F)F)n2)c1,3,-3,7,i,5,4,4,31,
Cc1ccccc1CN1CCNC1=O,11,0,-7,i,-9,-4,4,-12,
O=c1c2ccccc2ncn1-c1ccc([N+](=O)[O-])cc1Cl,-5,4,11,i,-1,-5,-2,-9,
O=C(NCc1ccco1)C1CCC(N2C(=O)C3C4CCC(C4)C3C2=O)CC1 (configuration not stated),-3,-3,6,i,2,1,x,1,
Cc1cc(C(=O)N(C2CCCCC2)C2CCCCC2)no1,5,3,30,x,8,-4,-4,7,
Cc1nc(C(=O)NC2CCCCC2)sc1C1(C)CC(c2cccc([N+](=O)[O-])c2)=NO1 (configuration not stated),7,-7,11,i,-3,-14,-6,16,
O=C(CCS(=O)(=O)c1ccc(Br)s1)NC1CCCC1,0,-3,11,i,-3,-1,x,3,
O=C(CNC(=O)c1cccnc1)N=Nc1c(O)[nH]c2c(Br)cc(Br)cc12,-4,11,5,i,30,-3,-18,6,
Cc1ccc(-c2nnc(N3CC(C)OC(C)C3)c3ccccc23)cc1 (configuration not stated),-1,-6,18,i,10,1,x,-5,
NC(=O)CC(NC(=O)c1ccccc1)c1ccc(NCc2ccccc2)c([N+](=O)[O-])c1 (configuration not stated),6,-3,15,i,2,6,-19,3,
CC(C)CC1NC(=O)N(CC(=O)Nc2ccc3c(c2)CCC3)C1=O (configuration not stated),-8,4,-18,i,-6,-1,-4,-14,
Cc1cccc(C)c1Nc1nnc(SCC(=O)NC2CCS(=O)(=O)C2)s1 (configuration not stated),1,3,-3,i,4,6,-8,2,

# Random excerpt: 2 records from the list, in no set order.
SMILES,MT1-MMP act inh,MT1-MMP act inh RFP,HIV Env fusion,Rce1 inh,eIF4H FP inh,PABP polyA inh,Yeast UUG start,CSC inhib,others
O=C(NCc1ccco1)C1CCC(N2C(=O)C3C4CCC(C4)C3C2=O)CC1 (configuration not stated),-3,-3,6,i,2,1,x,1,
Cc1ccccc1CN1CCNC1=O,11,0,-7,i,-9,-4,4,-12,

# Not all compounds are listed, so the mix of outcomes need not match the whole.
